Assay outcomes from PubChem.
AID923: qHTS Assay for Allosteric/Competitive Inhibitors of Caspase-1: Spectroscopic Profiling in AFC Spectral Region | AID 923, 2007 | 75,000 tested, 1.1% active | compound fluorescence, AFC spectral region (405/520 nm); almost no hit is shown here | Potency, µM (series often up to 57.5 µM), for inactives: at the top dose fluorescence increase, most hits filed as activators; active means well fitted activation curve with a large enough effect; inconclusive means small, poorly fitted or top-dose-only effect;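 further: potency means the concentration at half of the fitted maximal effect; 0% is about no effect; scaled to a free AFC standard on each plate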
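Baseline compound fluorescence (AFC region, 405 nm ex/520 nm em) taken from the intercept of kinetic reads with 50 nM caspase-1 and 5 uM Ac-WEHD-AFC; normalized to an on-plate AFC standard curve; compounds titrated up to 57 uM.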
TSHR agonist: TSH receptor (human) agonism; Potency, µM (doses to about 57.1 µM), without a hit: at the highest dose activation, actives largely listed as activators; HEK293-CNG-TSHR cells (CNG channel as cAMP sensor), membrane potential dye, cAMP; 73,000 tested, 0.48% active; active = well fitted activation curve of enough size with the parental cells flat; inconclusive = any curve in the parental cells; inactive = parental cells flat and receptor cells flat or falling; further: potency means the concentration at half of the fitted maximal effect; % of control where 0% means no effect; weak receptor curves with flat parental cells got no call and are not listed
Target sequence (P16473 whole entry, looked up): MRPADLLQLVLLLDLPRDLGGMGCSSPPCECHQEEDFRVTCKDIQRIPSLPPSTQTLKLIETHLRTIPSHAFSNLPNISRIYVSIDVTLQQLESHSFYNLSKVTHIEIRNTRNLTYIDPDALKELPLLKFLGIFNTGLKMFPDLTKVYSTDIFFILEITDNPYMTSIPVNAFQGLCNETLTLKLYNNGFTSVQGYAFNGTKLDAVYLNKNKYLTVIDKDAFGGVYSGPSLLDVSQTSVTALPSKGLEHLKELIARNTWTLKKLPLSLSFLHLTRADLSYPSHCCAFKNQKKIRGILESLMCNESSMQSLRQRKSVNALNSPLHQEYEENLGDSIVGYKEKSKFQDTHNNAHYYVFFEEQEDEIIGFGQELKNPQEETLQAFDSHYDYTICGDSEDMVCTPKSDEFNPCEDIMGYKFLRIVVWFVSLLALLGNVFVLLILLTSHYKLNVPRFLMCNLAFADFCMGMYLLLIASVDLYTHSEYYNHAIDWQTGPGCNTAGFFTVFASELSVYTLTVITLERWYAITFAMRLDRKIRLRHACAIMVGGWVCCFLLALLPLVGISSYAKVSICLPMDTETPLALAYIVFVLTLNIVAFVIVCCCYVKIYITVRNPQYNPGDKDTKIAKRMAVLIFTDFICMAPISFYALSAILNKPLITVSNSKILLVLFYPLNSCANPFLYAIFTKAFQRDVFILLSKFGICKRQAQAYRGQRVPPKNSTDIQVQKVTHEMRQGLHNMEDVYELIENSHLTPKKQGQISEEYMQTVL
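HEK 293 cells stably expressing TSHR and a cAMP-gated CNG channel; parental CNG-only cells as counterscreen. Cells preloaded 60 min with membrane potential dye plus 100 uM RO 20-1724, then compound 30 min; fluorescence read at 590 nm.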
A647 fluor: compound autofluorescence in A647 spectral region | Compound fluorescence, A647 channel (570/671 nm), Tris buffer | max dye-equivalent concentration, M | 59,000 tested, under 10 active; active means above 1 µM dye equivalent; inconclusive means 0.1 to 1 µM; inactive means 0.1 µM or less;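 further: values scaled relative to a standard on each plate; highest value over a series up to 38 µM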
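Compound fluorescence was measured in 100 mM Tris buffer, pH 8.0, after 15 min at room temperature, using 570 nm excitation and 671 nm emission filters. Signal was normalized to a per-plate Alexa 647 standard curve and expressed as dye-equivalent concentration at each compound concentration.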
A488 fluor: A488 region autofluorescence; compound autofluorescence, A488 spectral region, dye equivalency; hits give high values; max dye equivalency, M; 59,000 tested, 0.1% active; AID 591; active = above 10 nM dye equivalent; inconclusive = 1 to 10 nM; inactive = 1 nM or less; about half of its hits are not listed in these tables;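 further: highest value over a series up to 38 µM; compound alone in buffer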
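Read-out: relative fluorescence at 480/540 nm, expressed as Alexa 488 dye-equivalent concentration from a six-point A488 standard included per plate. Conditions: 100 mM Tris, pH 8.0; 15 min incubation, room temperature.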
Resorufin autofl: compound fluoresces in the resorufin spectral region; Compound fluorescence, resorufin region 547/598 nm, buffer; hits give high values; max dye-equivalent concentration, M; 59,000 tested, 0.04% active; AID 588; active = above 10 nM dye equivalent; inconclusive = 1 to 10 nM; inactive = 1 nM or less; a few of its hits are not listed in these tables; further: highest value over a series up to 38 µM
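Read-out: intrinsic compound fluorescence at ex 547/em 598 nm after 15 min at RT in pH 8.0 Tris (100 mM). Values expressed as resorufin-equivalent concentration from per-plate standard series.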
Starred values were filed as active, the others as inactive; i = inactive; ? = inconclusive; / = not tested or not shown; [ ] = another dose, or the depositor's remark. Some of the compounds tested, so the mix of outcomes need not match the whole.

Each structure is followed by: AID923	TSHR agonist	A647 fluor	A488 fluor	Resorufin autofl
O=C(c1ccc(-c2ccccc2)cc1)N1CCN(c2nc3ccccc3o2)CC1
    -1.4%	11%	/	/	/
CCCn1nc(C(=O)NCc2ccccn2)c2ccccc2c1=O
    -1.7%	3%	1.4e-08	i	i
CCn1c(SCC(=O)N2c3ccccc3Sc3ccccc32)nc2c1c(=O)n(C)c(=O)n2C
    -1.3%	20µM*	2.6e-09	i	i
CCOC(=O)C1CCN(C(=O)CS(=O)Cc2nc(-c3ccc(C)cc3)oc2C)CC1 (stereo not drawn)
    3.8%	4%	/	/	/
Cc1cccc(Nc2ncnc3nc[nH]c23)c1C
    -1.4%	-5%	/	/	/
O=C(N1CCOCC1)N(CCN1CCOCC1)Cc1cccc(Cl)c1
    1.4%	6%	1.5e-08	i	i
O=C(NCCO)c1cccc(S(=O)(=O)N2CCCCC2)c1
    -2.9%	0%	1.3e-09	i	i
CC1(C)Oc2ccc(C(=O)N3CCOCC3)cc2N(CC(=O)N2CCOCC2)C1=O
    -2.0%	1%	1.3e-09	i	i
CC1(C(=O)NC2CCCCC2)CCC(=O)N1Cc1cccs1 (stereo not drawn)
    0.1%	12%	/	/	/
O=C(CSc1nnc(-c2cccs2)o1)N1CCCc2ccccc21
    -0.6%	/	1.5e-08	i	i
O=C(CSc1ccc(-c2ccccc2)nn1)N1CCOCC1
    -1.2%	-13%	1e-09	i	i
Cc1cnc(C(=O)OCC(=O)Nc2oc(-c3ccccc3)c(-c3ccccc3)c2C#N)cn1
    -1.2%	1%	4.4e-09	i	i
Cc1onc(-c2ccccc2Cl)c1C(=O)Nc1nnc(C(C)C)s1
    1.0%	?	/	/	/
COc1ccc(NC(=O)Nc2ccc3c(c2)N(C)C(=O)CS3)cc1OC
    -1.4%	-16%	/	/	/
CC(=O)Nc1nnc(SCc2cccc(F)c2)s1
    1.2%	2%	/	/	/
O=C(CCNS(=O)(=O)c1ccc(Cl)cc1)NCc1ccccn1
    2.9%	6%	7.1e-09	i	i
Cc1ccc(NC(=O)CSc2nnc(-c3ccccn3)n2C)cc1
    0.7%	1%	1.6e-08	i	i
O=C(NCC(c1cccnc1)N1CCN(c2ccc(F)cc2)CC1)c1ccccc1 (stereo not drawn)
    2.9%	5%	1.7e-09	i	i
CCOc1ccc(-n2c(SCc3nc(-c4cccs4)no3)nnc2-c2ccncc2)cc1
    0.7%	?	7.8e-09	i	i
O=C(CN1CCN(c2nc(-c3ccc(F)cc3)cs2)CC1)Nc1ccc2c(c1)OCO2
    2.0%	?	1e-09	i	i
Cc1ccc(C)c(S(=O)(=O)NC(CCC(N)=O)C(=O)O)c1 (stereo not drawn)
    -1.6%	-7%	5.2e-08	i	i
CCOC(=O)c1c(C)c(C(=O)NCc2ccc3c(c2)OCO3)c(C)n1CC
    -0.9%	13%[11.4 µM]	1e-09	i	i
O=c1nc2s/c(=C\c3ccco3)c(=O)n2nc1Cc1ccc(F)cc1
    4.4%	-6%	3.1e-09	i	i
O=C(CC1CCCCC1)NC1CCCC1
    0.6%	12%	4.6e-09	i	i
CCOc1ccc(/C(O)=C2\C(=O)C(=O)N(CCN(C)C)C2c2cc(OC)ccc2OC)cc1Cl (stereo not drawn)
    2.7%	15%	1e-09	i	i
CCCCOc1ccccc1C(=O)NCCCC(=O)O
    /	/	6.1e-09	i	i
Cc1csc2nc(CCNS(=O)(=O)c3cccs3)cn12
    -2.5%	1%	/	/	/
COc1ccc(S(=O)(=O)N2CCC(C(=O)NC3CC3)CC2)cc1Cl
    -1.7%	-2%	5.6e-08	i	i
CN(C)Cc1ccccc1-c1ccc2ncnc(NCc3cccs3)c2c1
    -1.1%	12%	1.6e-08	i	i
COC(=O)c1cc(COC(=O)c2ccc3ccccc3n2)oc1C
    1.2%	19%	4.2e-09	i	i
CC(=O)c1ccccc1OCCn1nnc(-c2ccc(C)cc2)n1
    -0.2%	9%[11.4 µM]	1e-09	i	i
O=S(=O)(N1CCCCCC1)N1CCN(S(=O)(=O)N2CCOCC2)CC1
    -0.1%	?	5.4e-09	i	i
COc1ccc(C[C@@](C)(N)C(=O)O)cc1OC
    2.5%[25.7 µM]	18%[25.6 µM]	3.5e-08	i	i
Cc1csc2nc(CNS(=O)(=O)c3ccc4c(c3)OCCO4)cn12
    1.4%	-3%	/	/	/
CC(C)Sc1nc2c(c(=O)[nH]c(=O)n2C)n1Cc1ccc(Cl)cc1
    -0.5%	?	1.6e-08	i	i
COc1ccc(C(=O)CSc2nn3c(=O)c(C(C)(C)C)nnc3s2)cc1
    0.3%	7%	3.6e-08	i	i
O=C(NC1CCCCC1NC(=O)c1ccco1)c1ccco1 (stereo not drawn)
    0.7%	3%	3.2e-08	i	i
O=C(Cn1ccc(C(F)(F)F)n1)Nc1ccc(S(=O)(=O)NCc2ccco2)cc1
    -3.0%	-15%	1e-09	i	i
CCc1nnc(NC(=O)CN2CCOCC2)s1
    -0.5%	1%	2.4e-08	i	i
Cc1cc(=O)[nH]c(SCC(=O)N2CCCCCC2)n1
    -0.4%	-4%	1e-09	i	i
COc1ccccc1CNc1ccnc(-c2ccc3c(c2)OCO3)n1
    -0.9%	/	3.5e-09	i	i
COc1cc2c(cc1OC)CN(c1ccc(-c3ccccc3OC)nn1)CC2
    3.5%	7%	3.6e-08	i	i
Cc1cc(NC(=O)c2ccccc2-c2ccccc2C(=O)O)no1
    -0.1%	0%	1e-09	i	i
O=C(Nc1nccs1)C1(S(=O)(=O)c2ccc(Cl)cc2)CC1
    1.9%	-2%	5.1e-09	i	i
CCOC(=O)C(c1ccccc1)N1CCN(c2ccc(OC)cc2)CC1 (stereo not drawn)
    /	/	2e-08	i	i
O=C(c1scc2c1CCCC2)N1CCOCC1
    0.6%	-1%	1e-09	i	i
CCOC(=O)Cn1nc(C)c(-c2ccccc2)c1N
    2.0%	-1%	5e-08	i	i
c1cnc2c(SCc3ccc(-c4nnco4)cc3)cccc2c1
    -0.6%	29%	1.2e-08	i	i
CC1Cc2ccccc2N1S(=O)(=O)c1cccc(C(=O)OCC(=O)NC2CCS(=O)(=O)C2)c1 (stereo not drawn)
    -1.4%	17%	6.5e-08	i	i
COc1cc(NC(=O)CN(c2ccc(C)cc2)S(=O)(=O)c2c(C)n[nH]c2C)cc(OC)c1
    -0.7%	-5%	1e-08	i	i

Two of the compounds above, as tab-separated lines.
Compound	AID923	TSHR agonist	A647 fluor	A488 fluor	Resorufin autofl
COc1cc2c(cc1OC)CN(c1ccc(-c3ccccc3OC)nn1)CC2	3.5%	7%	3.6e-08	i	i
Cc1cc(NC(=O)c2ccccc2-c2ccccc2C(=O)O)no1	-0.1%	0%	1e-09	i	i

Next section:
Each structure is followed by: AID923	TSHR agonist	A647 fluor	A488 fluor	Resorufin autofl
COc1cccc(-c2nccc(NCCc3c[nH]c4ccc(OC)cc34)n2)c1
    0.5%	4%	8.1e-09	i	i
O=C(Cc1cccs1)Nc1ccc(N2CCOCC2)cc1
    -2.7%	-5%	/	/	/
O=C(C1=C(O)C(=O)N(c2ncccn2)C1c1ccc(Cl)c(Cl)c1)c1ccco1 (stereo not drawn)
    6.0%	2%	/	/	/
Cc1oc2c(CN3CCCC3)c(O)ccc2c(=O)c1-c1ccccc1
    2.9%	8%	2.1e-08	i	i
CC12CCC(C(=O)N3CCN(c4ccccc4)CC3)(CC1=O)C2(C)C (stereo not drawn)
    1.3%	9%	7.1e-09	i	i
COc1ccccc1CNC(=O)COc1ccccc1OC
    0.2%	13%	2.6e-09	i	i
CCOC(=O)N1CCN(C(=O)c2ccc3c(=O)n(CCOC)c(=O)[nH]c3c2)CC1
    -1.5%	0%[11.4 µM]	7.9e-09	i	i
COc1nc2ccccc2cc1-c1noc(-c2cccnc2)n1
    0.9%	10%	1e-09	i	i
COc1ccccc1-c1ccc2ncnc(NCCNC(C)=O)c2c1
    1.3%	?	2.2e-09	i	i
COc1ccc(C(=O)N2CCC[C@@]3(CCN(Cc4ccccc4OC)C3)C2)cc1
    1.9%	?	1e-09	i	i
C[C@@H](CS(=O)(=O)Cc1ccccc1)C(N)=O
    0.5%[11.5 µM]	2%[11.4 µM]	3.2e-08	i	i
c1ccc2[nH]c(CN3CCN(c4ncnc5c4oc4ccccc45)CC3)nc2c1
    -0.4%	11%	3.3e-08	i	i
Cc1cccc(NC(=O)CSc2nnc(-c3cc(C)n(-c4ccccc4)c3C)o2)c1C
    -0.2%	?	1.5e-08	i	i
CCOC(=O)c1c2n(c3ccc(O)cc13)CCC2
    -0.7%	-4%	1e-09	i	i
COC(=O)CNC(=O)c1ccc2c(c1)S(=O)(=O)c1ccccc1C2=O
    0.0%	-4%	6.7e-09	i	i
N#CC(C#N)=NNc1ccc2cn[nH]c2c1
    0.7%[11.5 µM]	11%[11.4 µM]	1e-09	i	i
O=C(OCC1OC2C(Oc3nc(=O)ccn32)C1O)c1ccccc1 (stereo not drawn)
    0.7%	-2%	5.1e-08	i	i
COc1ccc(OC)c(S(=O)(=O)N2CCc3ccccc32)c1
    0.9%	?	9.1e-09	i	i
CCOC(=O)c1c(N)sc2c1CCCC2
    0.7%	-7%	1e-08	i	i
CCCC(=Nc1ccccc1)C1=C(O)C(C(=O)OC)C(C)(C)CC1=O (stereo not drawn)
    6.5%	-1%	/	/	/
C#C[C@]1(O)CC[C@H]2[C@@H]3CCc4cc(O)ccc4[C@H]3CC[C@@]21C
    1.8%	?	/	/	/
O=C(O)c1cc(S(=O)(=O)N2CCCCCC2)c(Cl)cc1Cl
    -2.7%	13%[11.4 µM]	/	/	/
COc1ccc(C(NC(=O)c2ccco2)c2ccc(OC)c(OC)c2)cc1 (stereo not drawn)
    4.1%	15%	/	/	/
CN1CCN(CC#CCn2c3ccccc3c3ccccc32)CC1
    1.6%	1%	2.3e-09	i	i
CC1=C(C(=O)O)N2C(=O)[C@@H](NC(=O)[C@@H](N)C3=CCC=CC3)[C@@H]2SC1
    -1.3%	6%	4.8e-08	i	i
CC(CCc1ccco1)NC(=O)Nc1cccc(F)c1 (stereo not drawn)
    0.1%	?	2.9e-08	i	i
C=CCNC(=O)c1c(Cl)cccc1Cl
    2.5%	4%	/	/	/
CCOC(=O)CC(Nc1nc(N2CCOCC2)nc(N2CCOCC2)n1)c1ccccc1Cl (stereo not drawn)
    1.0%	?	5.2e-09	i	i
C[N+](C)([O-])CCC=C1c2ccccc2CCc2ccccc21
    2.9%[11.5 µM]	4%[11.4 µM]	2e-08	i	i
CN(C)S(=O)(=O)N(Cc1ccc(Br)cc1)c1ccccc1
    0.0%	?	1e-09	i	i
Cc1onc(-c2c(F)cccc2Cl)c1C(=O)NC1=NCCS1
    -3.5%	-4%	/	/	/
CC(C)(C)c1ccccc1OCC(=O)NCCC(=O)O
    1.6%	-2%	8e-09	i	i
CN(C)CC(=O)Nc1ccc(S(N)(=O)=O)cc1
    -0.1%	-8%	/	/	/
Cc1noc(C)c1S(=O)(=O)NCCN1CCN(c2ccccc2)CC1
    0.2%	-1%	1e-09	i	i
COc1cccc(C(=O)CN2C3=NCCCN3c3ccccc32)c1
    0.8%	15%	1e-09	i	i
CC(=O)N1CCC2(CCN(Cc3ccncc3)CC2)CC1
    2.0%	7%	2.8e-08	i	i
COc1ccc(CC(=O)OCn2nnc3ccccc3c2=O)cc1
    0.0%	4%	5.1e-09	i	i
